PKD1 kinase inh – inhibitors of human PKD1 kinase | 0.056% of 200,000 active | inhibition, %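 (about 10 µM by stock and volumes)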 | Q15139 | PKD1 kinase fluorescence polarization assay;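 active means inhibition of 50% or more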;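 further: controls were vehicle for no effect and a reference inhibitor for full effect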
GALR2 ag – GALR2 (human) receptor agonism; activation, %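 (tested at 5 µM)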; 0.48% of 140,000 active; AID 803; O43603; GALR2-expressing cells, agonist activation read-out;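 active means above mean plus 3 SD of all compounds, about 5% in these data, not always enough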;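 further: 0% = vehicle buffer wells and 100% = reference agonist at full effect; tested in CHO reporter cells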
Target sequence (O43603 whole entry, looked up): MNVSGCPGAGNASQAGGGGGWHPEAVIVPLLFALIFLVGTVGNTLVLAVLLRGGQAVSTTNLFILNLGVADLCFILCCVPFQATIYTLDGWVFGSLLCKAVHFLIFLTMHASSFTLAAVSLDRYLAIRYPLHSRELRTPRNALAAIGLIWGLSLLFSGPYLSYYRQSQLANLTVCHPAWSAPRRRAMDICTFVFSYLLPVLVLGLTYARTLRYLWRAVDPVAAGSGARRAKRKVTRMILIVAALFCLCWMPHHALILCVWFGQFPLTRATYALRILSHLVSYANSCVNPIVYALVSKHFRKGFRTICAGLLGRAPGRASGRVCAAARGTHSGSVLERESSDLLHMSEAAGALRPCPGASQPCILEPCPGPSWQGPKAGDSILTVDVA
HSV replic up – increases HSV replication in cells; HSV replication augmentation in cells, fold increase; maximum fold increase; 0.005% of 220,000 active;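 active means peak rise of 1.5-fold or more in the series; tested in PC3 cells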;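 further: first round at 10 µM; read as green reporter fluorescence; hits show the peak of a series up to 25 µM; 1 = signal of infected wells without compound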
INS promoter inh – TRM-6 insulin promoter activity inhibition; TRM-6 cells (human fetal islet line), insulin promoter-eGFP reporter, imaging; reporter expression induced with tamoxifen; inhibition, % at 2 µM; 0.9% of 130,000 active; AID 1273;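 active means inhibition above the mean plus 3 SD, with well images judged a real hit on visual review, cut at about 60% in these data, passing the limit was not always enough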
RGS16-Gao HTS – RGS16-Galphao interaction regulator (human); O15492+P09471; bead-based flow cytometry RGS16-Galphao binding, fluorescence; actives lie on both sides; binding response (% of control), % at 10 µM; 0.38% of 220,000 active; AID 1441;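 active means below 25% or above 175%, edge rows of some plates excepted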;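 further: Galphao activated by GDP with aluminum fluoride before binding; 100% = wells without compound and 0% = beads without RGS; some results beyond the cut were filed as inactive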
Target sequence (O15492 whole entry, looked up): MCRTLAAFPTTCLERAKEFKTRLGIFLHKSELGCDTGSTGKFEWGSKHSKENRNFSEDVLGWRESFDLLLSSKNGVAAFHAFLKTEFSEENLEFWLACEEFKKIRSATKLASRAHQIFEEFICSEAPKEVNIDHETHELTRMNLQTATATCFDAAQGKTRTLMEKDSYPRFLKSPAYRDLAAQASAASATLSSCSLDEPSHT
Target sequence (P09471 whole entry, looked up): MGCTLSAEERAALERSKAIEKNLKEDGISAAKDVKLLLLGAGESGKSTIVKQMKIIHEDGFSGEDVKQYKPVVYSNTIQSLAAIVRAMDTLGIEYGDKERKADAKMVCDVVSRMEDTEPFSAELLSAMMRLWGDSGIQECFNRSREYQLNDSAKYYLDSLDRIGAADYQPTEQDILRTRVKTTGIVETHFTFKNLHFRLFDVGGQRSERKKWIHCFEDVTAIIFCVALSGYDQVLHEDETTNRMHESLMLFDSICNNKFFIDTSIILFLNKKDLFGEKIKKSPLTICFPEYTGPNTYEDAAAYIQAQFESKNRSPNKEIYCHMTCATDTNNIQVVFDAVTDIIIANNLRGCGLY
INS promoter inh cell count – also measured in INS promoter inh; calls as there; normalized cell count, %; measured here: cell count, toxicity; reference of the scale not given here;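 cells exposed to compound for 48 h; stained nuclei by imaging scaled within each plate; lower means fewer cells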
HSV replic up primary fold – recorded beside HSV replic up, whose call it bears; fold increase; compound at 10 µM; measured here: primary screen fold increase 10 uM; tested in PC3 cells;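 GFP signal in the first replicate; 1 = infected wells without compound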
* = called active by the depositor; i = inactive; . = not tested or not shown.

SMILES | PKD1 kinase inh | GALR2 ag | HSV replic up | HSV replic up primary fold | INS promoter inh | INS promoter inh cell count | RGS16-Gao HTS
CCOC(=O)N1CCC(N2C(=O)c3ccccc3C2Nc2ccc(Cl)cn2)CC1 (centres undefined) | 3 | -1.5 | i | 0.93 | . | . | 103
O=C(COC(=O)C1(c2ccccc2F)CCCC1)N1CCN(C(=O)c2ccco2)CC1 | -7 | 0.2 | i | 0.64 | -18 | 119 | 103
Cc1cc(C)n(C(=O)c2ccc([N+](=O)[O-])cc2[N+](=O)[O-])n1 | -8 | -1.9 | i | 0.95 | -46 | 47 | 72
O=C(CCN1C(=O)c2ccccc2C1=O)NC1=NCCS1 | -2 | -2.8 | i | 0.87 | 0 | 78 | 105
O=C(CCNS(=O)(=O)c1cccc2nonc12)N1CCN(c2cccc(Cl)c2)CC1 | -5 | -0.8 | i | 0.83 | -48 | 96 | 95
O=C(CNc1ccccc1)c1ccc([N+](=O)[O-])cc1 | -6 | -1.3 | i | 1 | . | . | 94
O=C(c1ccco1)N1CCN(C(=O)c2cnn3c(C(F)(F)F)cc(-c4cccs4)nc23)CC1 | -3 | -2.0 | i | 1.2 | 54 | 55 | 98
OCC1CCCC(n2cnc3c(=S)nc[nH]c32)O1 (centres undefined) | . | . | i | 0.88 | . | . | 102
COC(=O)c1sccc1NC(=O)/C=C\c1ccc(Cl)cc1Cl | -5 | -2.3 | i | 0.99 | 28 | 118 | 97
CCOC(=O)C1CCCN(C(=O)C2CCCN(S(C)(=O)=O)C2)C1 (centres undefined) | 3 | -0.9 | i | 0.87 | . | . | 100
COc1ccccc1CNc1n[nH]c(NCc2ccccc2OC)n1 | -8 | -3.1 | i | 0.87 | 9 | 84 | 98
COc1cc2c(cc1OC)CN(C(=O)c1ccc(Br)o1)CC2 | . | . | i | 0.94 | . | . | 112
CCCCn1c(N)c(Br)c(=O)[nH]c1=O | . | . | i | 0.96 | . | . | 102
CSc1cccc(NC(=O)c2cnn3ccccc23)c1 | . | . | i | 0.89 | . | . | 100
Cc1c(CCOC(=O)c2ccc(N3CCOCC3)c([N+](=O)[O-])c2)sc[n+]1CC#N | . | . | i | 0.87 | . | . | 102
CCC(NC(=O)c1ccccc1NC(=O)c1ccco1)C(=O)NNC(=O)c1ccc(OC)cc1 (centres undefined) | -11 | -0.9 | i | 1 | -13 | 89 | 69
O=C(NCC1CCCO1)c1cccc(-n2cnnn2)c1 (centres undefined) | -7 | -1.3 | i | 0.92 | 27 | 173 | 107
C/C(=N\NC(=O)COc1ccc([N+](=O)[O-])cc1)C(C)(C)C | -1 | -0.8 | i | 0.97 | 17 | 97 | 101
COc1ccc(Sc2nnc(-c3ccccc3)cc2C#N)cc1 | -3 | -1.2 | i | 0.91 | 12 | 89 | 103
Cc1ccc(OCCSc2nc3ncnc(N)c3[nH]2)cc1 | 0 | . | i | 1 | . | . | 102
O=C(OCC#CCSc1nnc(-c2ccc(Br)cc2)o1)c1cccs1 | -14 | -2.0 | i | 1 | 6 | 116 | 96
CC1CCc2c(sc(NC(=O)COC(=O)C3CCCO3)c2C#N)C1 (centres undefined) | 4 | . | i | 0.99 | . | . | 99
O=C(O)c1ccc(/C=N/NC(=S)NCc2ccccc2)cc1 | 0 | . | i | 0.97 | . | . | 99
COC(=O)c1[nH]c2ccc(C)cc2c1NC(=O)CN1CCCC(C)(C)C1 | -6 | -0.9 | i | 0.87 | 24 | 62 | 103
CCOc1ccc(C2/C(=C(\O)c3cccc(OC)c3)C(=O)C(=O)N2c2cc(C)on2)cc1OC (centres undefined) | -2 | -1.1 | i | 0.93 | -34 | 44 | 101

17 of the compounds above, with values under each structure:
Sequence of screens: PKD1 kinase inh	GALR2 ag	HSV replic up	HSV replic up primary fold	INS promoter inh	INS promoter inh cell count	RGS16-Gao HTS
CCOC(=O)N1CCC(N2C(=O)c3ccccc3C2Nc2ccc(Cl)cn2)CC1 (centres undefined)
  3	-1.5	i	0.93	.	.	103
O=C(COC(=O)C1(c2ccccc2F)CCCC1)N1CCN(C(=O)c2ccco2)CC1
  -7	0.2	i	0.64	-18	119	103
Cc1cc(C)n(C(=O)c2ccc([N+](=O)[O-])cc2[N+](=O)[O-])n1
  -8	-1.9	i	0.95	-46	47	72
O=C(CCN1C(=O)c2ccccc2C1=O)NC1=NCCS1
  -2	-2.8	i	0.87	0	78	105
O=C(CCNS(=O)(=O)c1cccc2nonc12)N1CCN(c2cccc(Cl)c2)CC1
  -5	-0.8	i	0.83	-48	96	95
O=C(CNc1ccccc1)c1ccc([N+](=O)[O-])cc1
  -6	-1.3	i	1	.	.	94
O=C(c1ccco1)N1CCN(C(=O)c2cnn3c(C(F)(F)F)cc(-c4cccs4)nc23)CC1
  -3	-2.0	i	1.2	54	55	98
OCC1CCCC(n2cnc3c(=S)nc[nH]c32)O1 (centres undefined)
  .	.	i	0.88	.	.	102
COC(=O)c1sccc1NC(=O)/C=C\c1ccc(Cl)cc1Cl
  -5	-2.3	i	0.99	28	118	97
CCOC(=O)C1CCCN(C(=O)C2CCCN(S(C)(=O)=O)C2)C1 (centres undefined)
  3	-0.9	i	0.87	.	.	100
COc1ccccc1CNc1n[nH]c(NCc2ccccc2OC)n1
  -8	-3.1	i	0.87	9	84	98
COc1cc2c(cc1OC)CN(C(=O)c1ccc(Br)o1)CC2
  .	.	i	0.94	.	.	112
CCCCn1c(N)c(Br)c(=O)[nH]c1=O
  .	.	i	0.96	.	.	102
CSc1cccc(NC(=O)c2cnn3ccccc23)c1
  .	.	i	0.89	.	.	100
Cc1c(CCOC(=O)c2ccc(N3CCOCC3)c([N+](=O)[O-])c2)sc[n+]1CC#N
  .	.	i	0.87	.	.	102
CCC(NC(=O)c1ccccc1NC(=O)c1ccco1)C(=O)NNC(=O)c1ccc(OC)cc1 (centres undefined)
  -11	-0.9	i	1	-13	89	69
O=C(NCC1CCCO1)c1cccc(-n2cnnn2)c1 (centres undefined)
  -7	-1.3	i	0.92	27	173	107

Going on with the list:
SMILES | PKD1 kinase inh | GALR2 ag | HSV replic up | HSV replic up primary fold | INS promoter inh | INS promoter inh cell count | RGS16-Gao HTS
COc1ccc(Cn2c(-c3ccc(C)cc3)c[n+]3ccccc23)cc1 | 7 | -0.7 | i | 0.81 | . | . | 99
Cc1ccc(/C=C/C(=O)N2CCN(S(=O)(=O)c3c(C)c(C)cc(C)c3C)CC2)o1 | 0 | -0.9 | i | 0.96 | . | . | 94
Cc1cc2oc(=O)cc(CN3CCN(C/C=C/c4ccccc4)CC3)c2cc1O | -4 | -0.6 | i | 0.74 | 33 | 90 | 101
Cc1c(Br)c([N+](=O)[O-])nn1CC(=O)N1CCCc2ccccc21 | -5 | -0.6 | i | 0.93 | . | . | 110
Cc1ccc2oc(C(=O)NCc3ccc4c(c3)OCO4)c(C)c2c1 | -11 | 0.4 | i | 0.93 | -23 | 172 | 100
O=C(c1snnc1-c1ccccc1)N1CCOCC1 | -6 | . | i | 1.1 | . | . | 96
CCOc1ccc(C(C)C)cc1S(=O)(=O)Nc1ccc(Cl)cn1 | 1 | -1.9 | i | 0.98 | -6 | 78 | 106
O=C(Nc1ccc(S(=O)(=O)N2CCCC2)cc1)c1ccc(OCC2CCCO2)cc1 (centres undefined) | -8 | . | i | 1.1 | 13 | 93 | 86
CCn1c(S(=O)(=O)O)nc2ccccc21 | . | . | i | 0.93 | . | . | 113
O=C(Nc1ccccc1[N+](=O)[O-])c1cncc(Br)c1 | 5 | . | i | 0.79 | 43 | 138 | 100
C/C(=N\Nc1cc(N2CCOCC2)nc(C)n1)c1cccc([N+](=O)[O-])c1 | -2 | . | i | 0.98 | . | . | 106
CN(C)c1ccc(N=Nc2cccc3ccoc23)cc1 | . | . | i | 1 | . | . | 95
CCSc1ncccc1-c1nc2ccccc2[nH]1 | -8 | -0.2 | i | 1.1 | 28 | 119 | 141
COCc1c(C#N)c(NCCc2ccc(F)cc2)nc(C)c1[N+](=O)[O-] | 0 | 1.2 | i | 0.95 | -11 | 72 | 161
CCNC(=O)NC(=O)CSc1ccc2ccccc2c1 | -2 | . | i | 0.93 | . | . | 103
O=C(Nc1nc(-c2ccncc2)cs1)c1ccc(F)cc1 | -4 | . | i | 1 | . | . | 102
CCN(CC)C(=O)C1CCN(S(=O)(=O)c2ccc3oc4ccccc4c3c2)CC1 | -3 | -3.1 | i | 0.86 | -27 | 81 | 98
O=C(NNC(=O)c1ccncc1)Nc1ccc([N+](=O)[O-])cc1 | -10 | . | i | 1 | -8 | 115 | 102
CCC(=O)N1CCN(c2nc3ccccc3s2)CC1 | -2 | -3.4 | i | 1.2 | -50 | 141 | 102
COc1ccc(NC(=O)/C(C#N)=C/c2c(C)nn(-c3ccc(F)cc3)c2Cl)cc1Cl | -10 | 0.4 | i | 0.92 | 24 | 60 | 62
COCc1cc(=O)[nH]c(Nc2nc3ccccc3o2)n1 | -12 | -1.1 | i | 1 | . | . | 100
COc1ccc(-n2c(Cc3cccn3C)nnc2SCC(=O)Nc2ccc(Cl)cc2)cc1 | 11 | -0.6 | i | 0.93 | . | . | 103
COc1ccc(Nc2oc(-c3ccco3)nc2S(=O)(=O)c2ccc(F)cc2)cc1 | 5 | -1.3 | i | 1.1 | . | . | 99
COc1ccc(S(=O)(=O)N(C)CC(=O)Nc2ccccc2OC)cc1C | -6 | 0.7 | i | 0.96 | -209 | 71 | 103
COCCCNCCOCCSc1ccc(Cl)cc1 | 0 | -1.9 | i | 0.91 | -41 | 89 | 103
SMILES | PKD1 kinase inh | GALR2 ag | HSV replic up | HSV replic up primary fold | INS promoter inh | INS promoter inh cell count | RGS16-Gao HTS
O=C(CSc1nnc(-c2ccco2)n1Cc1ccccc1)c1ccccc1 | -10 | -0.6 | i | 0.96 | . | . | 103
CCOC(=O)c1sc(NC(=S)NC(=O)c2ccco2)nc1C | -3 | 0.0 | i | 1.1 | . | . | 75
COc1nc(Oc2ccc(C(=O)O)cc2)nc(Oc2ccc(C(=O)O)cc2)n1 | -3 | -1.6 | i | 0.94 | -3 | 202 | 104
COC(=O)c1ccc(NC(=O)CSc2nnc(CNc3ccc(F)cc3)n2C)cc1 | 2 | -4.0 | i | 1.1 | 15 | 86 | 103
CC(C)(C)NC(=O)C(c1cccnc1)N(C(=O)c1csnn1)c1ccccc1 (centres undefined) | -3 | . | i | 1.1 | . | . | 109
O=C(c1cc(Cl)ccc1[N+](=O)[O-])N1CCc2ccccc2C1 | -11 | -0.8 | . | . | 31 | 141 | 101
CCOC(=O)CNC(=O)CSc1nnc(-c2ccco2)n1N | -5 | -1.3 | i | 0.86 | -21 | 99 | 104
Cc1ccc(OCC(=O)N/N=C/c2ccc([N+](=O)[O-])o2)cc1 | 4 | -1.1 | i | 0.87 | -23 | 90 | 98
CN(C)C(=O)CSc1nnc(NC(=O)CCc2ccccc2)s1 | . | . | i | 1.1 | . | . | 102
CCOC(=O)c1ccc(S(=O)(=O)N2CCN(CCC#N)CC2)cc1 | 0 | -1.0 | i | 0.89 | -100 | 112 | 104
Cc1cccc(NC(=O)N(C)Cc2cccs2)c1 | -7 | -1.2 | i | 0.79 | -19 | 127 | 93
CCCC(C)NC(=O)COc1ccc(Sc2ccc(OCC(=O)NC(C)CCC)cc2)cc1 (centres undefined) | 1 | -0.6 | i | 0.9 | -42 | 107 | 113
CCCSc1sc(C(=O)OC)c(-c2cccs2)c1C#N | . | . | i | 1 | . | . | 98
CCOC(=O)CC1COCCN1Cc1cn[nH]c1-c1ccc2c(c1)OCO2 (centres undefined) | 2 | . | i | 0.99 | . | . | 125

Assay outcomes from PubChem BioAssay.
